High-throughput results from PubChem.
CatB block – human cathepsin B inhibitors, primary screen, biochemical, fluorogenic substrate. AID 453, 2006. actives 0.1% (n = 63,000). P07858. inhibition, %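 (tested at 10 µM)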. purified cathepsin B, fluorescence; in the data active means inhibition above about 21%;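 further: 0% = enzyme with no compound and 100% = no enzyme blank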
CatS block – inhibitors of human cathepsin S, biochemical, compound mixtures; actives 0.06% (n = 62,000); inhibition, %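 (tested at 5 µM per compound within 10-compound mixtures)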; recombinant cathepsin S, AMC dipeptide fluorescence, pooled mixtures; AID 501, 2006; P25774; in the data active means inhibition above about 32%, passing the limit was not always enough;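 further: 0% = enzyme without compound and 100% = blank without enzyme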
Target sequence (P25774 115-331 limits assumed): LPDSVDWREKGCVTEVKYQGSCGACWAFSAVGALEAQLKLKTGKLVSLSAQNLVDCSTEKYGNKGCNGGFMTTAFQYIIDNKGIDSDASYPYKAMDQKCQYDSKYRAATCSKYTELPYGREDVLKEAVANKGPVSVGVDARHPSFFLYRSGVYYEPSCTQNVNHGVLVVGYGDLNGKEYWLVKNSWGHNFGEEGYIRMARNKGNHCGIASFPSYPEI
Her2 expr inh – inhibitors of Her2 protein expression, primary screen, SKBR-3 cells, AlphaScreen, 66K library; Receptor tyrosine-protein kinase erbB-2 (Homo sapiens), P04626; SKBR-3 HER2 protein level, 18-24 h; active compounds read low; HER2 level % of control, % at 10 µM; actives 0.69% (n = 65,000);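 active means HER2 level under 5% of the carrier-only control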;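 further: 100% = DMSO carrier and 0% = 500 nM PU-H71 HSP90 inhibitor; lower value means stronger loss of Her2 protein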
CatB mix inh – cathepsin B inhibitors from pooled compounds, primary screen, biochemical, compound mixtures, AMC fluorescence; inhibition, %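 (ten-compound pools at 5 µM per compound and 50 µM total)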; Purified cathepsin B, AMC dipeptide fluorescence; P07858; actives 0.06% (n = 62,000); AID 488, 2006; in the data active means inhibition above about 22%, passing the limit was not always enough;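 further: 0% = enzyme without compound and 100% = no enzyme blank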
C1s inh – complement C1s protease inhibitors, primary screen, biochemical, 10-compound mixtures | Complement C1s subcomponent (Homo sapiens), P09871 | purified C1s, fluorogenic AMC substrate, pooled mixtures | mean inhibition % of two 10-compound mixtures (active compounds read high), % at 5 µM (by protocol) | actives 0.16% (n = 62,000);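 active means inhibition above 20% in each of the two 10-compound mixture wells holding the compound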;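 further: 0% = enzyme wells lacking compound mixture and 100% = no-enzyme blank wells; some compounds called inactive have numbers as strong as hits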
Cathepsin G inh – human cathepsin G inhibitors, primary screen, biochemical, pooled compound mixtures, AMC fluorescence. purified enzyme, AMC-tetrapeptide fluorescence. actives 0.2% (n = 62,000). AID 581, 2007. inhibition, % at 5 µM (by protocol);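 active means inhibition above 20% in each of the two mixture wells holding the compound; inactive means inhibition of 20% or less in either well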;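 further: 0% = enzyme control without mixture and 100% = blank lacking enzyme; strong numbers were not always called active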
Target sequence (P08311 21-244 limits assumed): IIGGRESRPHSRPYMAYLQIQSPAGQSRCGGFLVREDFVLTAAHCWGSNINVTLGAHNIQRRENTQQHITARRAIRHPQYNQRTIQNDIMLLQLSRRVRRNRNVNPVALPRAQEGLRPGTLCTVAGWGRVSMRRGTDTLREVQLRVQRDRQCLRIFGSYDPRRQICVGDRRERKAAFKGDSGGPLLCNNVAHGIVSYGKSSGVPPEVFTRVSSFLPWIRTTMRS
CatL inh – inhibitors of human cathepsin L, biochemical; Procathepsin L (Homo sapiens), P07711; purified cathepsin L, fluorogenic substrate, fluorescence; inhibition, %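 (tested at 10 µM)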; actives 0.17% (n = 58,000); AID 460, 2006; in the data active means inhibition above about 45%;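 further: 0% = enzyme with no compound and 100% = no enzyme blank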
Target sequence (P07711 114-288 limits assumed): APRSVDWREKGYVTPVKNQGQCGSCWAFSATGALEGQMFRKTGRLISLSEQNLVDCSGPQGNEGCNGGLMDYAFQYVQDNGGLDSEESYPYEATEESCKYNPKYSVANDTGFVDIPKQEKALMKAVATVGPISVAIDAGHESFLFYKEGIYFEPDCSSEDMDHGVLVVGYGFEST
Target sequence (P07711 292-333 limits assumed): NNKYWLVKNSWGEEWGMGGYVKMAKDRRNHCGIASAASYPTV
* = called active by the depositor; · = not tested or not shown. Some of the compounds tested; rates above refer to the full screens.

entry | canonical_smiles | CatB block | CatS block | Her2 expr inh | CatB mix inh | C1s inh | Cathepsin G inh | CatL inh
1 | Cc1nc2ccccc2c2oc(C(=O)Nc3ccc4c(c3)OCCO4)cc12 | -1 | 5 | 64 | -2 | -7 | 3 | ·
2 | COC(=O)c1ccc(CSc2nc(-c3ccco3)cc(C(F)(F)F)n2)o1 | · | · | 56 | · | · | · | ·
3 | Cn1nnc(NC(=O)c2cccc(F)c2)n1 | 3 | 16 | 90 | 3 | -12 | 5 | 8
4 | O=C(Nc1nnc(-c2ccc3c(c2)CCCC3)o1)c1ccccc1Cl | -5 | 4 | 84 | -2 | -7 | -3 | -5
5 | CCOc1ccc(C(=O)NCCCn2ccnc2)cc1 | 6 | 8 | 101 | 2 | 13 | 13 | 10
6 | COc1cccc(-n2c(C)nc3c(cnn3-c3ccc(C)cc3)c2=O)c1 | 3 | -18 | 77 | -8 | -79 | -29 | -1
7 | c1cncc(-c2nnc(SCCSc3nnc(-c4cccnc4)o3)o2)c1 | 0 | -3 | 90 | -6 | 2 | 3 | -6
8 | CC(C)C(c1nnnn1Cc1ccccc1)N(Cc1ccco1)Cc1cccs1 (stereo not drawn) | -1 | -7 | 88 | -1 | 2 | 5 | -9
9 | CC(OC(=O)c1ccncc1)C(=O)Nc1cccc(Cl)c1 (stereo not drawn) | 1 | -11 | 78 | -6 | -42 | -9 | 5
10 | CCCOC(=O)c1ccc(OC(=O)c2ccco2)cc1 | · | -2 | 150 | 3 | 1 | 6 | -12
11 | CCC1c2ccc(C)n2CCN1C(=O)Nc1ccc(F)cc1 (stereo not drawn) | 6 | -5 | 101 | 1 | 14 | 8 | 9
12 | COc1cc(S(=O)(=O)N2CCOCC2)ccc1NC(=O)CSc1nnc(N)s1 | 0 | -14 | 146 | -7 | -109 | -3 | 14
13 | C=CCNc1nc2c(c(=O)n(C)c(=O)n2C)n1Cc1ccc(F)cc1 | 3 | 13 | 80 | 1 | 8 | 5 | ·
14 | COC(=O)c1ccc(NC(=O)C2CCCN2S(=O)(=O)c2ccc(F)cc2)cc1 (stereo not drawn) | 9 | 10 | 70 | 4 | 15 | 13 | 11
15 | O=C(NCc1ccc2c(c1)OCO2)c1cccc(N2CCCC2=O)c1 | 0 | 0 | 64 | 5 | 15 | 11 | 1
16 | CC(C)[C@H](NC(=O)Nc1ccc(S(N)(=O)=O)cc1)C(=O)O | 3 | 0 | 73 | -3 | -29 | -1 | 27
17 | CC1(C)CC(=O)C(C=NCCN2CCN(C(=O)C34CC5CC(CC(C5)C3)C4)CC2)=C(O)C1 | 6 | · | 123 | · | · | · | 21
18 | COc1cccc(N2CCN(C(=O)CN(c3ccc(C)cc3)S(=O)(=O)c3c(C)n[nH]c3C)CC2)c1 | 8 | 35 | 93 | 10 | -54 | -12 | 10
19 | CCOC(=O)C1CCN(c2ncnc3nc[nH]c23)CC1 | -7 | -1 | 105 | 10 | 1 | 0 | -2
20 | Cc1cc(N=CC2=C(O)CC(C)(C)CC2=O)no1 | 4 | -4 | 108 | 2 | -19 | 9 | 8
21 | O=C(NC1(C(F)(F)F)C(=O)Nc2c1c(=O)[nH]c(=O)n2-c1ccccc1)c1cccnc1 (stereo not drawn) | -4 | · | 75 | · | · | · | 5
22 | CNC(=O)CSc1nnc(-c2ccncc2)n1Cc1ccccc1 | 0 | -12 | 71 | 1 | -39 | 29 | ·
23 | COc1ccc2cc3cc(C(=O)Nc4ccc5c(c4)OCO5)oc3nc2c1 | -1 | 3 | 64 | -1 | -2 | 3 | ·
24 | CCN(CC)CCOc1nc(C)nc2c1oc1ccccc12 | -1 | 2 | 100 | 4 | 17 | 10 | 2
25 | Cc1noc(NS(=O)(=O)c2ccc(N/C=C/C(=O)c3cccnc3)cc2)c1C | -4 | 3 | 96 | 9 | 6 | 2 | 14
26 | O=C(NCc1ccc(Cl)cc1)c1ccc(COCC(F)(F)F)o1 | 1 | 12 | 104 | 1 | 4 | 0 | 9
27 | Nc1c(C(=O)NCc2ccccc2)nnn1Cc1ccccc1 | 1 | 0 | 100 | 3 | -2 | 6 | 20
28 | Cc1n[nH]c(=O)nc1N1CCN(c2ccccc2)CC1 | -2 | 9 | 96 | 2 | 9 | 10 | 10
29 | Cc1cc(NC(=O)c2ccc(NC(=O)C(C)Oc3ccccc3)cc2)no1 (stereo not drawn) | -3 | 5 | · | 6 | -27 | 16 | ·
30 | COc1ccc(Cn2c(-c3ccco3)nc3oc4cc(OC)ccc4c(=O)c3c2=O)cc1 | 0 | -18 | 73 | -7 | -117 | -1 | 8
31 | COC(=O)c1ccc(CSc2nnc(-c3ccncc3)o2)o1 | 2 | -9 | 81 | -11 | -65 | 1 | 1
32 | c1ccc(-c2nn3c(Cn4cnc5ccccc54)nnc3s2)cc1 | -1 | -16 | 82 | 1 | -2 | 11 | 3
33 | CCOc1ccc(N(CC(=O)N2CCN(c3ccccc3)CC2)S(=O)(=O)c2c(C)noc2C)cc1 | -1 | -2 | 67 | 1 | -5 | 1 | ·
34 | CCCS(=O)(=O)N1CCC(C(=O)NCCN(CC)c2ccccc2)CC1 | 3 | -8 | 96 | 6 | 18 | 14 | -7
35 | O=C(CSc1nnnn1-c1ccc2c(c1)OCO2)NCc1cccs1 | 1 | 16 | 92 | -2 | -8 | 2 | 15
36 | N=C1C(c2nc3ccccc3c(=O)[nH]2)=C(O)CN1CCc1ccccc1 | -3 | 0 | 89 | -1 | -7 | -4 | ·
37 | CCOCCCNC(=O)C1CCCCN1S(=O)(=O)c1ccc(F)cc1 (stereo not drawn) | 2 | -5 | 94 | -1 | -16 | -3 | -2
38 | Nc1nonc1-n1nnc(C(=O)O)c1-c1cccs1 | 7 | 0 | 109 | 2 | -18 | 7 | ·
39 | Nn1c(SCc2nc3ccccn3c2Br)nnc1-c1cccnc1 | 5 | -13 | 88 | 4 | 8 | 8 | 7
40 | CCCCn1c(NC(=O)c2ccccc2)c(C#N)c2nc3ccccc3nc21 | 4 | 15 | 64 | 5 | -34 | -5 | -4
41 | CN(c1ccccc1)c1nc(-n2ccnc2)nc(-n2ccnc2)n1 | 2 | -3 | 91 | 1 | 2 | 7 | 0
42 | Cc1nc2ccccn2c1-c1csc(NCc2ccco2)n1 | 4 | 5 | 83 | 2 | -28 | -11 | 2
43 | O=C(NCCCn1ccnc1)c1ccco1 | 8 | -7 | 112 | 0 | -12 | 4 | 11
44 | CCOc1ccc(C(=O)Nc2cc(C)on2)cc1 | · | -7 | 89 | -4 | -34 | -11 | ·
45 | COc1ccc(S(=O)(=O)N2CCCCC2)cc1C(C)C | -1 | 0 | 87 | -3 | 4 | 1 | 8

From no. 29 as far as 42, as listed above:
entry | canonical_smiles | CatB block | CatS block | Her2 expr inh | CatB mix inh | C1s inh | Cathepsin G inh | CatL inh
29 | Cc1cc(NC(=O)c2ccc(NC(=O)C(C)Oc3ccccc3)cc2)no1 (stereo not drawn) | -3 | 5 | · | 6 | -27 | 16 | ·
30 | COc1ccc(Cn2c(-c3ccco3)nc3oc4cc(OC)ccc4c(=O)c3c2=O)cc1 | 0 | -18 | 73 | -7 | -117 | -1 | 8
31 | COC(=O)c1ccc(CSc2nnc(-c3ccncc3)o2)o1 | 2 | -9 | 81 | -11 | -65 | 1 | 1
32 | c1ccc(-c2nn3c(Cn4cnc5ccccc54)nnc3s2)cc1 | -1 | -16 | 82 | 1 | -2 | 11 | 3
33 | CCOc1ccc(N(CC(=O)N2CCN(c3ccccc3)CC2)S(=O)(=O)c2c(C)noc2C)cc1 | -1 | -2 | 67 | 1 | -5 | 1 | ·
34 | CCCS(=O)(=O)N1CCC(C(=O)NCCN(CC)c2ccccc2)CC1 | 3 | -8 | 96 | 6 | 18 | 14 | -7
35 | O=C(CSc1nnnn1-c1ccc2c(c1)OCO2)NCc1cccs1 | 1 | 16 | 92 | -2 | -8 | 2 | 15
36 | N=C1C(c2nc3ccccc3c(=O)[nH]2)=C(O)CN1CCc1ccccc1 | -3 | 0 | 89 | -1 | -7 | -4 | ·
37 | CCOCCCNC(=O)C1CCCCN1S(=O)(=O)c1ccc(F)cc1 (stereo not drawn) | 2 | -5 | 94 | -1 | -16 | -3 | -2
38 | Nc1nonc1-n1nnc(C(=O)O)c1-c1cccs1 | 7 | 0 | 109 | 2 | -18 | 7 | ·
39 | Nn1c(SCc2nc3ccccn3c2Br)nnc1-c1cccnc1 | 5 | -13 | 88 | 4 | 8 | 8 | 7
40 | CCCCn1c(NC(=O)c2ccccc2)c(C#N)c2nc3ccccc3nc21 | 4 | 15 | 64 | 5 | -34 | -5 | -4
41 | CN(c1ccccc1)c1nc(-n2ccnc2)nc(-n2ccnc2)n1 | 2 | -3 | 91 | 1 | 2 | 7 | 0
42 | Cc1nc2ccccn2c1-c1csc(NCc2ccco2)n1 | 4 | 5 | 83 | 2 | -28 | -11 | 2

Further entries
entry | canonical_smiles | CatB block | CatS block | Her2 expr inh | CatB mix inh | C1s inh | Cathepsin G inh | CatL inh
46 | Cc1ccccc1C(=O)/C=C1\NC(=O)CS1 | 4 | -14 | 89 | -11 | -72 | -14 | 8
47 | CC(=O)Cc1nsc(NC(=O)c2ccccc2)n1 | 1 | 1 | 80 | 2 | 1 | 1 | -3
48 | Cc1cc(C(=O)CSc2nnc(-c3ccncc3)n2-c2ccccc2)c(C)n1C | -5 | -1 | 87 | -5 | 0 | 0 | -7
49 | O=c1c2ccccc2ncn1Cc1ccco1 | -2 | · | 105 | · | · | · | -9
50 | Cc1cc(=O)n2[nH]c(-c3ccc(F)cc3)cc2n1 | 2 | 1 | 131 | 5 | 12 | 11 | ·
51 | CCOC(=O)N1CCN(c2ncnc3nc[nH]c23)CC1 | 2 | 0 | 112 | 4 | 12 | 9 | ·
52 | O=C(c1ccco1)N1CCN(c2nc(C3CC3)nc3sc4c(c23)CCCC4)CC1 | 0 | 2 | 77 | 5 | -7 | -3 | -1
53 | O=c1c2c3c(sc2n2cnnc2n1C1CCCCC1)CCC3 | 5 | · | 117 | · | · | · | -4
54 | O=C(O)c1cc2nc(-c3ccccc3)cc(C(F)(F)F)n2n1 | -2 | 2 | 100 | 3 | -7 | -2 | 11
55 | CCOc1nc(-c2ccncc2)nc2ccccc12 | 5 | 6 | 71 | 4 | -37 | 7 | 10
56 | CC(C)Cc1nc2n[nH]c(N)c2c2c1CCC2 | · | · | 83 | · | · | · | ·
57 | Cc1n[nH]c(=O)nc1N1CCc2ccccc2C1 | 0 | 15 | 88 | -1 | 1 | 0 | 8
58 | CCCNCC(O)COc1ccccc1C(=O)CCc1ccccc1 (stereo not drawn) | 3 | 21 | 133 | 6 | 7 | 11 | -4
59 | c1nc(NC2CCCCCC2)c2[nH]cnc2n1 | -3 | 2 | 49 | 1 | 0 | -2 | -4
60 | O=C(C(c1ccccc1)N1CCOCC1)N1CCOCC1 (stereo not drawn) | 2 | -16 | 180 | 2 | -4 | 8 | -13
61 | CCCCOc1ncnc2c1[nH]c1ccc(F)cc12 | 5 | 0 | 65 | 3 | 12 | 9 | 7
62 | CC1CN(c2cc(=O)n(-c3ccccc3)c(=O)[nH]2)CC(C)O1 (stereo not drawn) | 2 | -7 | 92 | 2 | 13 | 8 | -4
63 | COc1cccc(NC(=O)CNC(=O)c2ccccc2)c1 | -5 | -2 | 58 | 3 | 1 | 1 | 5
64 | CCOCC(=O)NCc1ccc2c(c1)OCO2 | 2 | 15 | 99 | 2 | -10 | 0 | ·
65 | CC(=O)NC(Cc1ccc(C(C)C)cc1)C(=O)NC1CCN(c2nc(C)cc(C)n2)CC1 (stereo not drawn) | 0 | 17 | 92 | 1 | 14 | 8 | 14
66 | CC1CN(C2CC(C)(C)NC(C)(C)C2)CCC1=O (stereo not drawn) | 1 | -2 | 86 | -1 | -25 | -8 | ·
67 | Clc1ccccc1N1CCN(c2ncnc3nc[nH]c23)CC1 | 2 | 19 | · | 1 | 10 | 5 | 11
